Compound activity (PubChem)
PINK1 modulator: A Quantitative High throughput Screen to Identify Chemical Modulators of PINK1 Expression. PINK1 immunofluorescence, high-content cytometry, 24 h. Potency, µM (highest dose often 76.6 µM), inactives show top-dose activation (PINK1 increase), hits mostly activators. actives 0.2% (n = 410,000); active = well fitted activation curve with a large enough effect; inconclusive = small, poorly fitted or top-dose-only effect; inactive = flat fitted curve, though single readings scatter; cell line not stated here;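 also: potency is read from the fitted curve at half-maximal effect; % of control where 0% means no effect; nearly all actives have a fitted effect of over 65% in size; a mitochondrial uncoupler was the plate control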
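PINK1 protein level read as immunofluorescence by microplate cytometer in a fixed, stained stable cell line after 24 h exposure to five compound concentrations, with CCCP as control.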
D2 agonist: Beta-Arrestin HTS for Positive Allosteric Modulators of the Human D2 Dopamine Receptor: Agonists; activation, % (no concentration beside the values); D(2) dopamine receptor (Homo sapiens), P14416; AID 624465, 2012; DiscoveRx PathHunter D2 beta-arrestin, luminescence, 90 min; 100% = 57 uM dopamine signal; actives 0.084% (n = 360,000); in the data active = activation above about 40%; inconclusive = about 15% to 40%; inactive = below about 15%; also: compound concentration not given in the record; the text of the record calls up to 30% inactive
Target sequence (P14416 whole entry, looked up): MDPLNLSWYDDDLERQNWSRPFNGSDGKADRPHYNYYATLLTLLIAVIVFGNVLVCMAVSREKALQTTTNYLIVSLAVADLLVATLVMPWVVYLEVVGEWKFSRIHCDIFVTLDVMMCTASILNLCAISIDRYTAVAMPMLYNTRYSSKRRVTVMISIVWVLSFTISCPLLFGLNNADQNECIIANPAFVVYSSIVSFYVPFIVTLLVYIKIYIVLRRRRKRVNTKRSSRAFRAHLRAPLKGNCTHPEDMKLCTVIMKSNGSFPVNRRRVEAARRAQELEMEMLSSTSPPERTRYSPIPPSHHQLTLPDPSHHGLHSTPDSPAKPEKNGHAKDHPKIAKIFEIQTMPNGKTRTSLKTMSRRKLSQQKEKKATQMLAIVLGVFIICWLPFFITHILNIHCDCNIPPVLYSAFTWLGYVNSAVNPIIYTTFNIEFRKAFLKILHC
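DiscoveRx PathHunter D2 beta-arrestin cells (2,100/well) attached overnight, then compound-stimulated 90 min at 37 C in HBSS/10 mM HEPES/0.1% Tween-20 buffer; beta-galactosidase complementation read by luminescence after 1 h at ambient temperature. Dopamine 57 uM final (EC100) as control.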
gsp antagonist: qHTS for Antagonists of gsp, the Etiologic Mutation Responsible for Fibrous Dysplasia/McCune-Albright Syndrome: qHTS. Potency, µM (series often up to 76.9 µM), for the others: at the highest dose activity change, negative = inhibition, usual class: inhibitors. AID 624288, 2012. gsp-mutant cells, cAMP HTRF, 30 min; control for the full effect not named in the record. actives 0.4% (n = 340,000); active = falling curve of any shape with a large fitted effect; inconclusive = falling curve, mostly with a smaller effect; inactive = flat or rising curve; cell line not stated here;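 also: intracellular cAMP measured with PDE inhibitor Ro 20-1724 present during compound exposure; potency is read from the fitted curve at half-maximal effect; % is scaled to controls: 0 for no effect and ±100 for the full control effect; nearly all actives have a fitted effect of over 65% in size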
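Cells in G418 medium, seeded 16-24 h, 37C; buffer exchange to DPBS + 1 mM CaCl2, 0.5 mM MgCl2, 0.05% BSA; cpds in DMSO + […] (300 uM stock), 30 min 37C; HTRF cAMP detection.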
gsp ag: qHTS for Agonist of gsp, the Etiologic Mutation Responsible for Fibrous Dysplasia/McCune-Albright Syndrome: qHTS; gsp mutant cells, cAMP HTRF, 30 min; control for the full effect not named in the record; Potency, µM (titrated, usually from 76.9 µM), inactives show at the highest dose activation (cAMP increase), hits mostly activators; actives 0.13% (n = 340,000); AID 624287, 2012; active = well fitted activation curve with a large enough effect; inconclusive = small, poorly fitted or top-dose-only effect, or another doubt; inactive = no such curve, though single readings can be large or run the other way; cell line not stated here;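 also: phosphodiesterase inhibitor Ro 20-1724 added with compounds to block cAMP breakdown; potency is read from the fitted curve at half-maximal effect; nearly all actives have a fitted effect of over 60% in size; about a fifth of the inactives were tested at one dose only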
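Cells in DMEM/10% FBS with G418 were pretreated with compounds in DMSO plus […] (300 uM stock) for 30 min at 37C. cAMP was measured by HTRF (cAMP-d2 plus anti-cAMP antibody-K) after 30 min at room temperature.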
Menin MLL FP FL: qHTS Assay for Inhibitors Targeting the Menin-MLL Interaction in MLL Related Leukemias: Competition With Fluorescein Labeled MLL-derived Peptide; 290,000 tested, under 10 active; AID 1766, 2009; FP activity change, % at 61.4 µM; Fluorescence polarization, fluorescein-MLL peptide displacement from menin; inconclusive = falling polarisation curve, or a change in total fluorescence; inactive = total fluorescence flat and polarisation flat or rising; no compound was filed as active; the % refers to the polarisation; negative = inhibition;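 also: % of control where 0% means no effect; inhibitors lower the polarisation; unlabelled MLL peptide was the positive control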
ClpP mod: qHTS Assay for Activators of ClpP; AID 651965, 2013; purified B. subtilis ClpP, FRET peptide cleavage, 20 min; Potency, µM (titrated, usually from 57.5 µM), without a hit: top-dose activity change, negative = active; ATP-dependent Clp protease proteolytic subunit (Bacillus subtilis (strain 168)), P80244; actives 1.9% (n = 340,000); active = well fitted falling curve with a large enough effect; inconclusive = small, poorly fitted or top-dose-only effect; inactive = no such curve, though single readings can be large or run the other way; also: potency is read from the fitted curve at half-maximal effect; the source files actives as falling curves though it sought activators and does not explain the sign; nearly all actives have a fitted effect of over 65% in size; many hits overshoot -100%
Target sequence (P80244 whole entry, looked up): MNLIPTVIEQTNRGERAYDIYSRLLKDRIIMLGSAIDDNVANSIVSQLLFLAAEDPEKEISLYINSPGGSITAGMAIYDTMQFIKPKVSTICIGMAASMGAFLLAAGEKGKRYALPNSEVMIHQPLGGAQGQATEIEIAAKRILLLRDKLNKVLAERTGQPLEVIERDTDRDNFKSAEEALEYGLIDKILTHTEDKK
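FRET quenching reversal measured ClpP activation: 10 microg/mL B. subtilis ClpP at pH 8 with the FRET-FV decapeptide, read at 430 nm after 320 nm excitation. The 20-min minus 0-min signal was scaled between DMSO/no-enzyme wells and ADEP (5.8 microM final).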
Sfp inh: qHTS Assay for Inhibitors of Bacillus subtilis Sfp phosphopantetheinyl transferase (PPTase). 4'-phosphopantetheinyl transferase ffp (Bacillus subtilis), Q9F4F7. Biochemical Sfp PPTase activity, qHTS. Potency, µM, without a hit: max response, negative = inhibition, usual class: inhibitors. actives 3.5% (n = 310,000). AID 1490, 2009; active = well fitted inhibition curve with a large enough effect; inconclusive = small, poorly fitted or top-dose-only effect, or another doubt; inactive = no such curve, though single readings can be large or run the other way;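 also: the enzyme is Sfp with the accession as filed and its product quenches rhodamine fluorescence; potency is read from the fitted curve at half-maximal effect; 0% = enzyme reaction without inhibitor and -100% = no enzyme wells; top concentration of the series not given in the record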
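Compounds were incubated with enzyme (final 15 nM) for 15 min at room temperature before substrate addition started the reaction. Fluorescence at 525 nm excitation, 598 nm emission was recorded immediately and after 30 minutes.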
An asterisk follows results filed as active; ? = inconclusive; . = not tested or not shown; & = joins results of further samples; [ ] = another dose, or the depositor's remark. No enrichment for hits. Share with any hit: about 5.1%.

SMILES	PINK1 modulator	D2 agonist	gsp antagonist	gsp ag	Menin MLL FP FL	ClpP mod	Sfp inh
Cc1ccc(-n2cc(CN3CCN(c4ccccn4)CC3)c(-c3ccc(F)cc3)n2)cc1	2.3%	-0.8	0.6%	9.2%	-0.2	.	?
CC1(C(=O)NCc2ccccc2)Cc2c(-c3cccc(C(F)(F)F)c3)ccnc2O1 (centres undefined)	1.1%	4.5	.	.	.	-6.0%	.
C/C(=N\Nc1cc(C(F)(F)F)ccc1Cl)c1ccccc1O	15.4%	-0.3	-10.7%	-3.9%	3.6	1.7%	-5.2%
O=C(Cc1ccc(S(=O)(=O)N2CCCCC2)cc1)NCc1ccc(Cl)cc1	1.9%	3.9	-4.9%	14.9%	.	-3.4%	.
CC1CC(C)CN(S(=O)(=O)c2ccc3c(c2)n(C)c(=O)c(=O)n3C)C1 (centres undefined)	0.3%	-3.0	-15.1%	-8.0%[15.4 µM]	3.1	.	3.8%
CCCCS(=O)(=O)N1CCCC(C(=O)Nc2ccc(Cl)cn2)C1 (centres undefined)	1.6%	1.9	-4.1%	-17.5%	-1.5	-0.2%	13.7%
COc1ccc(C(=O)NC(=S)Nc2nnn(C)n2)cc1	1.7%	-5.2	8.3%	-29.9%	0.5	0.6%	56.2µM*
COc1ccc(CN2CCC2(C)C(=O)Nc2cnc3ccccc3c2)c2ccccc12 (centres undefined)	0.2%	-2.2	.	.	.	?	.
O=C(Oc1ccccc1C(=S)N1CCOCC1)c1ccccc1	0.6%	-1.0	?	-10.9%[15.4 µM]	-0.1	.	-20.4%
Cc1ccc(C(C(=O)NCc2ccco2)N(C(=O)CNC(=O)c2cccs2)c2ccc(C)cc2)cc1 (centres undefined)	9.3%[38.3 µM]	-1.9	7.1%	9.2%	-1.5	-0.2%	6.9%
COc1ccc(CSc2nnc(Cc3sc(-c4ccccc4)nc3-c3ccccc3)o2)cc1	-2.3%	-3.7	11.4%	-7.6%	4.7	-10.0%	6.6%
CC(=O)C1=C(C)NC(C)=C(C(C)=O)C1c1ccccc1	0.4%	40.7*	11.3%	-9.4%[15.4 µM]	-5.4	.	12.6%
COc1cc(-c2nc(C(=O)NC3CCCCC3)cc3c2[nH]c2ccccc23)cc(OC)c1OC	2.9%	9.8	-24.0%	.	2.4	4.7%	1.6%
Cc1ccc(C2=NCCn3nc4cc([N+](=O)[O-])ccc4c32)cc1	0.2%	5.5	-0.1%	2.3%	.	-9.8%	.
COc1cccc(C(=O)OCC(=O)c2ccc(Br)s2)c1OC	0.2%	-3.7	-2.5%	?	.	-2.0%	.
Cc1ccccc1Cn1c(=O)sc2ccccc2c1=O	1.7%	0.6	-3.8%	-2.7%	7.0	.	1.8%
CN(C)C(=O)CN1CCN(C(=O)CCl)CC1	1.0%	-3.3	7.2%	-2.1%	-5.2	1.2%	19.3%
COc1ccc(-c2[nH]c3ccccc3c2SCCNC(=O)c2ccccc2)cc1	2.7%	-1.1	?	?	-1.6	?	17.2%
O=C(CSc1nc2sccc2c(=O)[nH]1)N1CCN(c2ccccc2)CC1	2.1%	4.5	-17.6%	-13.4%	2.0	0.4%	-5.9%
CC(C(=O)OCC(=O)c1ccc(Br)cc1)N1C(=O)C2C3C=CC(C3)C2C1=O (centres undefined)	-1.4%	-3.3	4.8%	-17.1%	-0.6	.	10.7%
CC(C)CN1CCN(Cc2cc3ccccc3[nH]2)CC1CCO (centres undefined)	0.9%	-2.1	-1.4%	-46.0%[inhibitor]	-1.7	.	-11.1%
Fc1cccc(Cl)c1CNn1cn[nH]c1=S	0.3%	-4.7	-1.7%	0.6%	1.7	0.5%	-3.9%
Cc1ccc(C)c(CN2C(=O)c3ccccc3S(=O)(=O)c3ccc(C(=O)N4CCN(C)CC4)cc32)c1	-0.1%&0.3%	-0.1	-12.7%	-0.3%	.	-0.7%&-0.4%	9.1%
O=C(NCc1ccccc1Cl)c1cccc(NC2=NC3CS(=O)(=O)CC3S2)c1 (centres undefined)	2.7%	3.8	7.6%	16.3%	-1.3	3.4%	15.0%
O=C(CSc1ccc([N+](=O)[O-])cc1)OCC(=O)N1CCCC1=O	1.0%	-5.1	-1.1%	3.1%	.	-2.4%	.
SMILES	PINK1 modulator	D2 agonist	gsp antagonist	gsp ag	Menin MLL FP FL	ClpP mod	Sfp inh
O=S(=O)(NCc1cccs1)NCc1ccccc1F	-0.8%	-2.4	8.3%	-36.0%[inhibitor]	0.9	.	?
CN(C(=O)c1cccc(NC(=O)Cc2ccc(NC(=O)C3CCN(C(=O)C4CCC4)CC3)cc2)c1)C1CCC1	0.7%	4.6	15.6%	.	.	0.9%	.
Clc1ccc(SCc2nc3ccccc3[nH]2)cc1	8.7%[38.3 µM]	1.2	3.1%	-6.4%	2.3	-9.6%	0.7%
CCC1CCCCN1C(=O)CCc1nnc(C2CCCCC2)o1 (centres undefined)	1.6%	-2.7	-7.7%	-23.3%	3.1	-0.4%	-2.5%
COc1ccccc1N1CCN(C(=O)c2oc3ccccc3c2C)CC1	8.5%[38.3 µM]	-1.6	11.7%	-38.4%[inhibitor]	-1.0	-1.3%	1.3%
O=C(Cc1coc(-c2ccc(F)cc2)n1)NCc1ccccc1	-1.1%	-0.5	6.8%	?	-1.0	?	5.7%
CCc1nn(CC(=O)NCCN2CCN(C)CC2)c(=O)c2cc3occc3n12	-0.5%	-0.3	4.4%	14.8%	-1.5	-3.7%	10.3%
COc1ccc2c(=O)c(-c3ccc4c(c3)OCO4)coc2c1	0.3%	-1.6	-3.2%	20.1%	2.0&-0.3	0.6%	-1.9%&5.8%
O=C(NCCCN1CCCC1=O)Nc1cc(Cl)ccc1Cl	0.0%	-4.7	6.1%	-63.9%[inhibitor]	-0.7	0.1%	-0.7%
Cc1cc(OCC(O)CN2C(C)CCCC2C)ccc1C(C)C (centres undefined)	-0.2%	-0.5	-3.1%	8.4%	-5.5	.	?
CC(=O)c1ccc(N(CC(=O)NCCc2ccccc2)C(=O)c2csnn2)cc1	0.0%	-5.4	1.4%	-12.3%[15.4 µM]	2.9	.	-2.2%
CC(O)c1ccc(Oc2cnccn2)cc1 (centres undefined)	-0.8%	6.1	10.4%	16.1%	-9.4	-1.7%	13.0%
CCOc1ccc(NC(=O)CSc2nnnn2C2CCCC2)cc1	3.6%	-8.7	11.8%	-23.9%	0.6	.	4.1%
O=C(COC(=O)c1ccc2ncsc2c1)NCc1ccc(Cl)cc1	6.7%	3.4	-8.9%	-22.4%	.	1.7%	.
O=C(CN1CCC(n2nnc3cc(C(F)(F)F)ccc32)CC1)N1CCc2ccccc21	.	0.3	4.9%	-9.5%	-1.3	-0.5%	5.3%
O=[N+]([O-])c1csc2ccccc12	2.9%	-3.0	0.7%	-39.4%[inhibitor]	.	.	.
Cc1ccc(S(=O)(=O)N(C)c2ccc3c(c2)C(=O)c2ccccc2-3)cc1	0.4%	-2.4	.	.	.	-0.3%	.
O=S(=O)(c1ccc(N2CCCC2)cc1)C(F)(F)F	0.7%[38.3 µM]	2.0	?	0.4%	2.4	-5.9%	2.6%
COCCCNC(NC(=O)c1ccc(Cl)cc1)C(Cl)(Cl)Cl (centres undefined)	-0.1%	-1.0	-12.7%	0.0%	0.5	-3.3%	7.5%
CN(Cc1ccccc1)C(=S)Nc1ccc(OC(F)F)cc1	-2.3%	-4.5	9.2%	0.3%	0.1	1.4%	4.8%
Cc1ccc(OCC(=O)O/N=C(\N)c2ccncc2)c(C)c1	5.2%	0.0	-5.7%	3.6%[15.4 µM]	7.3	.	11.0%
OCCN(CCO)c1nc2ccccc2[nH]1	-1.4%	2.5	2.7%	9.9%[15.4 µM]	28.1	.	-1.9%
O=C(Cn1nc(-c2ccccc2)ccc1=O)NCC1COCCO1 (centres undefined)	0.1%[38.3 µM]	-0.2	3.2%	21.6%	-1.5	-11.2%	18.0%
NC(=O)c1ccc(NC(=O)COC(=O)CCc2ccc(S(=O)(=O)N3CCCCC3)cc2)cc1	0.9%	-3.5	-9.0%	5.2%	-1.1	0.2%	10.2%
CCCS(=O)(=O)NC(=O)C1(C)CCN(C(=O)c2ccccc2Br)C1 (centres undefined)	0.7%	-4.5	.	.	.	2.5%	.
SMILES	PINK1 modulator	D2 agonist	gsp antagonist	gsp ag	Menin MLL FP FL	ClpP mod	Sfp inh
COc1ccc(C(=O)N(C)CCCC2CCCC2)cc1OC1CCN(C(C)=O)CC1	1.6%	-5.1	-14.6%	-58.0%[inhibitor]	.	0.3%	2.3%
C[C@H](NS(=O)(=O)OCC(Cl)(Cl)Cl)C1CC1c1ccccc1 (some centres undefined)	7.6%	-0.6	8.7%	.	-3.2	-1.2%	9.5%
Cn1c(CN2CCOCC2)nnc1SCC(=O)Nc1ccc2c(c1)OCCO2	0.3%[38.3 µM]	-4.4	10.0%	-29.1%	0.1	0.9%	11.5%
CCN(Cc1ccccc1)C(=O)c1ccc(SC)cc1OC	-0.2%	-2.1	-12.4%	-24.3%	1.8	-2.3%	10.4%
COC(=O)Nc1ccc(S(=O)(=O)Nc2cnc3ccccc3n2)cc1	-0.8%	-1.5	.	7.3%[15.4 µM]	-4.6	.	-11.4%
Cc1ccc(C(=O)NCc2n[nH]c(=S)n2-c2ccccc2)cc1[N+](=O)[O-]	-1.8%	0.6	2.5%	-7.9%	-0.9	.	7.1%
C=CCn1c(SC(C)C(=O)NCC2CCCO2)nnc1-c1ccc(OC)cc1 (centres undefined)	0.7%	-2.7	4.5%	?	.	0.7%	.
COc1ccc(C(=O)/C=C/c2ccc(F)cc2)c(OC(=O)c2ccc([N+](=O)[O-])cc2)c1	-0.5%	-4.7	18.3%	-17.6%	0.7	0.4%	1.9%
CCn1c(CC(=O)Nc2ccccc2Cl)nnc1SCC(=O)NC1CCCC1	-2.9%	-5.3	3.7%	-42.3%	2.3	.	11.3%
COc1ccc2oc(C(=O)Nc3ccc(C)cn3)c(C)c2c1	18.6%	-1.5	5.1%	-4.4%[15.4 µM]	.	.	.
CC(C)(C)S(=O)(=O)N1Cc2ccc(CO)cc2[C@H]1CCO	-0.5%	-1.5	3.4%	.	.	-0.3%	.
